Anthrax LT inh – inhibitors of anthrax lethal toxin internalization; Cells, anthrax lethal toxin internalization, FRET ratio (460/530); Potency, µM (top dose mostly 40 µM), inactives show top-dose activity change, negative = inhibition, most hits filed as inhibitors; AID 912; 70,000 tested, 0.67% active; active = well fitted falling ratio curve with the 530 nm signal flat; inconclusive = other ratio curves, or a change in one channel alone; inactive = flat curves in the ratio and both channels; the % refers to the ratio; note: % is set by controls: 0 for no effect and ±100 for the full control effect; nearly all actives have a fitted effect of over 50% in size; tested in ME-180 cells; beta-lactamase reporter
Prx2 Sm inh – inhibitors of Schistosoma mansoni peroxiredoxin 2. S. mansoni Prx2 activity coupled to TGR/GSH (TGR is thioredoxin glutathione reductase), NADPH fluorescence loss, qHTS; some inactives read as strong as hits. Potency, µM. 65,000 tested, 0.07% active; active means full or partial inhibition curve with a strong effect at the top dose; inconclusive means weaker partial or single-point curve; inactive means no accepted curve; note: series up to 57 µM; many of its hits are not listed in these tables
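qHTS, coupled TGR/Prx2 format; 15 min compound preincubation at RT; reaction started with H2O2 (2.5 mM aliquot); kinetic NADPH fluorescence decrease, ex 365/em 450 nm.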
The depositor's hits bear a star; ? = inconclusive; . = not tested or not shown; & = joins results of further samples; [ ] = another dose, or the depositor's remark. Potency is the fitted concentration of half-maximal effect. The list is partial. The share of hits here may be higher or lower than overall.

SMILES	Anthrax LT inh	Prx2 Sm inh
N#CC1=C2Sc3ccccc3N2CCCC1=O	4%	>57
COc1ccccc1NC(=O)c1nnn(Cc2ccccc2)c1NC(C)=O	3%	>57
Cc1ccc(SCCC(=O)N2CCOCC2)cc1	5%	>57
C[C@@H]1O[C@@H](n2cc(F)c(=O)[nH]c2=O)[C@H](O)[C@@H]1O	?	>57
CCn1c2ccccc2c2cc(NC(=O)COC(=O)Cc3cn4ccsc4n3)ccc21	2%	>57
O=C1CC(N2CCOCC2)C(=O)N1c1ccc2c(c1)OCO2 (centres undefined)	7%	>57
CCCC[C@@H]1C[C@H]1C(NC(=O)c1ccccc1)c1ccc(Cl)cc1 (some centres undefined)	?	>11
CC(=O)NCCNc1nc(-c2ccc3c(c2)OCO3)nc2ccccc12	8%	>57
O=[N+]([O-])c1cc(Cl)cc2c1nc(NCCO)c1ccccc12	3%[8 µM]	>57
CC[N@+]1(C)CCC[C@@H](OC(=O)C(O)(c2ccccc2)c2ccccc2)C1	1%[3.58 µM]	>57
CN(C)C(=O)CN(c1ccc(F)c(Cl)c1)S(C)(=O)=O	-6%	>57
O=C(c1ccc(S(=O)(=O)N2CCCCC2)cc1)N1CCN(c2ccccc2)CC1	3%	>57

Filtered by structure, the compounds so far containing fluorine.
SMILES	Anthrax LT inh	Prx2 Sm inh
C[C@@H]1O[C@@H](n2cc(F)c(=O)[nH]c2=O)[C@H](O)[C@@H]1O	?	>57
CN(C)C(=O)CN(c1ccc(F)c(Cl)c1)S(C)(=O)=O	-6%	>57

Additional entries:
SMILES	Anthrax LT inh	Prx2 Sm inh
CC(=O)N1CCN(CCN=CC2=C(O)CC(C)(C)CC2=O)CC1	3%	>57
COc1cccc(CNC(=O)CCS(=O)(=O)c2cccc3nonc23)c1	7%	>57
CN1C(=O)N(C)C(=O)C2(Cc3c(nc4ccccn4c3=O)N3CCC(Cc4ccccc4)CC32)C1=O (centres undefined)	?	>57
Cc1ccc(C)c(S(=O)(=O)NCc2cccnc2)c1	-5%	>57
COc1cccc(NC(=O)c2oc3ccccc3c2NC(=O)C(C)(C)C)c1	13µM*	>57
CCCCN(CC)CCCNC(=O)CC1Oc2ccccc2NC1=O (centres undefined)	3%	>57
C[C@H]1/C=C\CC(=O)OC[C@H](C)C(=O)N2CCC[C@@H]2C(=O)OC1	-9%[8 µM]	.
CC(=O)c1cc(F)c(N2CCN(C(=O)c3ccco3)CC2)cc1C	.	>57
Cc1ccc(NC(=O)C2CCN(S(=O)(=O)c3cccc4nonc34)CC2)nc1	-9%	>57
CCOc1ccc2[nH]c(=O)c(CN(Cc3cccnc3)C(=O)Nc3ccccc3OC)cc2c1	6%	>57
CCN(CC)CCCN1C(=O)C(=O)/C(=C(/O)c2ccc3c(c2)OCCO3)C1c1ccc(C)o1 (centres undefined)	3%	>57
O=C(CSc1nnc(-c2ccncc2)n1C1CCCCC1)Nc1ccccc1	10%	>57

Random excerpt: 4 records from the list.
SMILES	Anthrax LT inh	Prx2 Sm inh
O=C(CSc1nnc(-c2ccncc2)n1C1CCCCC1)Nc1ccccc1	10%	>57
CC(=O)NCCNc1nc(-c2ccc3c(c2)OCO3)nc2ccccc12	8%	>57
CC(=O)c1cc(F)c(N2CCN(C(=O)c3ccco3)CC2)cc1C	.	>57
Cc1ccc(C)c(S(=O)(=O)NCc2cccnc2)c1	-5%	>57

Later entries
SMILES	Anthrax LT inh	Prx2 Sm inh
Cc1cc(C)n2ncc(C(=O)Nc3ccc4c(c3)OCO4)c2n1	0%	>57
Cn1c(C(=O)NCCCN2CCOCC2)cc2c(=O)n(C)c3ccccc3c21	?	.
CC(C)CCn1cnc2c(cnn2-c2ccc(F)cc2)c1=O	7%	>57
CCOC(=O)C(NCc1ccccc1OC)(NC(C)=O)C(F)(F)F (centres undefined)	?	>57
CCN(CC(=O)NCc1cccs1)c1nnnn1-c1ccccc1	-10%	>57
COC(=O)c1ccc(CSc2nnc(CNC(=O)c3ccccc3F)o2)o1	-5%	>57
O=C1C2ON(c3ccccc3)C(c3ccncc3)C2C(=O)N1c1ccc(N2CCOCC2)cc1 (centres undefined)	9%	>57
O=C(c1ccco1)[C@@H]1[C@@H]2C(=O)N(c3ccccc3)C(=O)[C@@H]2C2c3ccccc3C=CN21 (some centres undefined)	-26%	>57
COc1ccc(N(CC(=O)Nc2cccc(C)c2)S(=O)(=O)c2c(C)n[nH]c2C)cc1	7%	>57
Cc1ccc2oc(=O)cc(CN3CCOCC3)c2c1	8%	>57
O=C(CN(C(=O)CSc1nnc(COc2ccccc2)o1)c1ccc(F)cc1)NC1CCCC1	?	>57
CC(=O)OCC1OC(C#Cc2ccccc2)C=CC1O (centres undefined)	-6%[8 µM]	.

Not a retest: 3 of the compounds above.
SMILES	Anthrax LT inh	Prx2 Sm inh
Cc1ccc2oc(=O)cc(CN3CCOCC3)c2c1	8%	>57
O=C(CN(C(=O)CSc1nnc(COc2ccccc2)o1)c1ccc(F)cc1)NC1CCCC1	?	>57
CC(=O)OCC1OC(C#Cc2ccccc2)C=CC1O (centres undefined)	-6%[8 µM]	.

More compounds:
SMILES	Anthrax LT inh	Prx2 Sm inh
O=C1c2ccccc2C(Nc2ccc(F)c(Cl)c2)N1Cc1ccco1 (centres undefined)	-23%	>57
COC(=O)CCC(=O)c1oc2ccccc2c1N	-4%	>57
Cc1ccccc1-c1nc(CS(=O)CC(=O)NCCN2CCOCC2)c(C)o1 (centres undefined)	-6%	>57
Cc1nc2c(OCc3ccccc3)cccn2c1CC#N	-2%&8%	>57&>57
CC(=O)N1CCN(c2ccc(Oc3ncnc4sccc34)cc2)CC1	0%	>57
CC1=NCCN1S(=O)(=O)c1cc(Cl)ccc1Cl	4%	>57
CCOC(=O)CC(=O)CSc1ncnc2c1cnn2-c1ccccc1	-17%	>57
COc1ccccc1N(CC(=O)N1CCCCC1)S(=O)(=O)c1ccccc1	-10%	>57
CCOc1ccc(C2c3c(oc4ccccc4c3=O)C(=O)N2c2ccc(C)cn2)cc1OC (centres undefined)	2%	>57
CCc1cc(C(=O)OC)c(N2C(=O)C3C4C=CC(C4)C3C2=O)s1 (centres undefined)	-1%	>57
Cc1cccn2c(=O)c(C=NCc3ccccc3)c(NCCO)nc12	-3%	>57
Cc1cc(Cl)ccc1NC(=O)CSc1nnc(Cc2cccs2)n1Cc1ccco1	?	>57
CCCC1=C(C(=O)OCC)C(c2ccc(N(C)C)cc2)n2ncnc2N1 (centres undefined)	2%	>57
c1cc(CCN2CCCCC2)ccn1	4%[8 µM]	>57
O=C(O)C1CC=CCC1C(=O)Nc1cc(Cl)ccc1Cl (centres undefined)	6%	>57
COC(=O)c1sccc1NC(=O)Cn1nnc(-c2ccc(C)cc2)n1	-1%	>57
CCOC(=O)c1ccccc1NC(=O)CN1C(=O)c2ccccc2S1(=O)=O	4%	>57
Cc1cccn2c(=O)c3cc(C#N)c(=O)n(-c4c(C)n(C)n(-c5ccccc5)c4=O)c3nc12	-15%	>57
O=C(CSc1nc2cc(S(=O)(=O)N3CCOCC3)ccc2o1)NC1CCCc2ccccc21 (centres undefined)	-1%	>57
Fc1ccccc1	-3%	.
Cn1c(=O)c2[nH]c(/N=N\N3CCN(CCO)CC3)nc2n(C)c1=O	-2%[8 µM]	>57
Nc1ncnc2c1CCC2	-12%	>57
Cc1cc(C(=O)OCC(=O)Nc2ncc(C(F)(F)F)cc2Cl)c(C)o1	-19%	>57
O=C1CCc2cc(S(=O)(=O)N3CCC(C(=O)NC4CCCC4)CC3)ccc2N1	3%	>57
CC(C)OC(=O)CSc1nnc(-c2cnccn2)n1Cc1ccco1	5%	>57
Cc1cc(C)nc(Nc2ccccc2Br)n1	-9%	>57
COC(=O)Cn1ccc(N(C)C)c(C#N)c1=O	-3%	>57
CCOc1cc(C(=O)N(C)Cc2cc3ccccc3[nH]c2=O)cc(OCC)c1OCC	-14%	>57
CCCc1[nH]nc2c1C(c1cc(OC)cc(OC)c1)C(C#N)=C(N)O2 (centres undefined)	10%	>57
COC(=O)c1[nH]c2cccc(OC)c2c1NC(=O)CCN1CCN(c2ccccc2OC)CC1	?	>57
COc1ccc(CCN2C(=O)c3ccccc3C2(O)c2ncc[nH]2)cc1OC (centres undefined)	17%	.
CCC(C)(C)n1nnnc1C(c1cccs1)N1CC=C(c2ccc(F)cc2)CC1 (centres undefined)	-24%	>57
COc1ccc(NS(=O)(=O)c2ccc(C)c(C(=O)O)c2)cc1	-2%	>57
CCS(=O)(=O)Nc1ccc(-c2nnc(SCC(=O)c3cccc(OC)c3)o2)cc1	-23%	>57
CCOc1ccc(C2NC(=O)c3n[nH]c(C)c32)cc1 (centres undefined)	-6%	>57
COc1cccc(Cn2c(=O)c(-c3ccc(Cl)cc3)nc3cnc(N4CCNCC4)nc32)c1	?	>57
C=CCc1cc(C)cc(C)c1OCCn1cncn1	1%	>57
COc1ccccc1C(=O)N(Cc1cccs1)C1CCS(=O)(=O)C1 (centres undefined)	4%	>57
O=C(OCCOCCN=C1NS(=O)(=O)c2ccccc21)c1ccncc1	0%	>57
O=C(NCc1ccccn1)Nc1ccc(Cl)c(Cl)c1	-12%	>57
O=c1c2[nH]c3ccccc3c2ncn1CCN1CCCCC1	.	>57
O=C1[C@H]2[C@H]3[C@H](O)[C@H](O)C/C(=N/OC[C@@H](O)COCc4ccco4)[C@@H]3CC[C@@H]2C(=O)N1Cc1ccccc1	-3%[8 µM]	.
CCc1nnc(NC(=O)CCC(=O)N2CCCC2)s1	6%	>57
CCOC(=O)c1ccccc1NC(=O)Cn1cnc2c(nnn2-c2ccc(C)cc2)c1=O	0%	>57
Cc1ccc2cc(C#N)c(SCC(=O)NCc3ccco3)nc2c1	-17%	>57
Cc1cc(NCCN2CCOCC2)n2nc(C)c(-c3ccccc3)c2n1	12%	>57
CC1CCCN(CC(=O)Nc2ccc(S(=O)(=O)NC3CCCCC3)cc2)C1 (centres undefined)	7%	>57
COc1ccc(C2=NCC(CSc3nccc(=O)[nH]3)S2)cc1 (centres undefined)	?	>57
Cn1c(/C(C#N)=C(\O)COc2ccc3ccccc3c2)nc2ccccc21	6%	>57
CCNC(C)(C)[C@@H](SS)c1ccc(Br)cc1	-15%[8 µM]	>57
O=C(c1ccco1)N1CCN(S(=O)(=O)c2ccc(S(=O)(=O)NC3CCCC3)cc2)CC1	8%	>57
CCN[C@]1(c2cccs2)CCCCC1=O	-5%[3.58 µM]	>57
Cc1oc2ncnc(N)c2c1C	-3%	>57
CC(C)C[C@H]1C(=O)N2CCC[C@@H]2[C@]2(O)O[C@](NC(=O)[C@@H]3C=C4c5cccc6[nH]c(Br)c(c56)C[C@H]4N(C)C3)(C(C)C)C(=O)N12	-3%	>57
COCCNC(=O)C(c1ccccc1)N(C(=O)Cn1nnc2ccccc21)c1cccnc1 (centres undefined)	-7%	>57
COc1ccc(C2(CCN)CC(C)N(C)CC2C)cc1 (centres undefined)	-7%	>57
Fc1ccc2c(Cl)c(-c3nnc(-c4cccs4)o3)sc2c1	-19%	>57
O=c1c(-c2ccccc2)nc2cnc(Nc3ccccc3)nc2n1Cc1cccs1	?	>57
CCOC(=O)N1CCC(NC(=O)c2cc(C(=O)NC3CCCC3)ccc2CO)CC1	?	>57
Cc1ccc(C)c(NC(=O)CN(C)S(=O)(=O)c2ccccc2)c1	-3%	>57

Next section.
SMILES	Anthrax LT inh	Prx2 Sm inh
Cc1ccc(NC(=O)CCSc2nnc(-c3ccco3)o2)cc1	-16%	>57
N#CC(C(=O)NC1CCCCC1)c1nc2ccccc2nc1N1CCOCC1 (centres undefined)	-16%	>57
Nc1ccnn1Cc1cccnc1	-7%	>57
CCOc1ccc(C(=O)CN2CCN(S(=O)(=O)c3ccc(Cl)cc3)CC2)cc1	-4%	>57
COc1cc(-c2nnc(COc3ccc4cc(Br)ccc4c3)o2)cc(OC)c1OC	?	.
Cc1onc(-c2c(Cl)cccc2Cl)c1C(=O)NCc1ccco1	.	>57
CCN1C(=O)[C@H]2[C@H]3[C@H](O)[C@H](O)C/C(=N/O[C@@H](C)CN4CCCCc5nc(C)c(C)cc54)[C@@H]3CC[C@@H]2C1=O	-11%[1.6 µM]	.
CN1C(=O)c2cccc3c(S(=O)(=O)NCc4ccco4)ccc1c23	-12%	>57
Cc1cc(C(=O)NCCCN2CCN(C3CCCCC3)CC2)n(-c2ccccc2)n1	-8%	>57
O=C(COc1ccccc1Cl)OCC(=O)N1CCN(S(=O)(=O)c2ccccc2)CC1	-6%	.
CCc1ccc(-c2nc(CSCC(=O)N3CCN(c4ccccn4)CC3)c(C)o2)cc1	?	>57
Cn1cc(C(=O)NCCc2ccccc2)c(=O)c2cc(S(=O)(=O)N3CCOCC3)ccc21	-3%	>57
N#CC1=C(N)Oc2n[nH]c(-c3cccs3)c2C1c1ccoc1 (centres undefined)	22%	>57
CCOc1ccc(N2CC(=O)Nc3ccccc3NCC2=O)cc1	10%	>57
COc1cc(C(=O)OC(C)C(=O)N2CCc3ccccc3C2)ccc1OCC(=O)N1CCOCC1 (centres undefined)	1%	>57
CN(C)Cc1ccccc1-c1cc(NC2CC2)ncn1	-18%	>57
CC(=O)Nc1cccc(C(=O)Nc2ccccc2C(=O)O)c1	2%	>57
NC(=O)C1CCCN(S(=O)(=O)c2ccc(Br)cc2)C1 (centres undefined)	6%	>57
CN(C)S(=O)(=O)c1ccc(C(=O)OCCCN=C2NS(=O)(=O)c3ccccc32)cc1	-8%	>57
Cc1nc2ccccc2c(=O)n1/N=C/c1cccnc1	11%	.
CC12CC(NC(=O)N1c1ccc(C(=O)N3CCN(c4ccccn4)CC3)cc1)c1ccccc1O2 (centres undefined)	-9%	>57
COc1cc(CN2CCCCC2)cc2cc(C(=O)O)c(=O)oc12	?	>57

Screens from PubChem.
